HNF4A DNA FP = change in binding of human HNF4A to DNA, primary screen, biochemical, fluorescence polarization, FITC-DNA; 0.3% of 360,000 active; 1 h; activity change, % at 10 µM; Hepatocyte nuclear factor 4-alpha (Homo sapiens), P41235; in the data active = activity change above about 30%, passing the limit was not always enough;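 note: controls were the assay level and a saturating level of protein; the project sought stronger binding though the title names inhibitors; some compounds called inactive have numbers as strong as hits; positive values seem to mean higher polarization but the record does not say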
FGF22 binding = binders of human FGF22 protein, primary screen, FGF22 synaptogenesis inhibitor project, biophysical, thermal shift, single point; recombinant FGF22 thermal shift, SYPRO orange fluorescence; percent of sucrose octasulfate shift, DMSO zero; 1.5% of 340,000 active; calls only at 9.99 µM; Fibroblast growth factor 22 (Homo sapiens), Q9HCT0;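 active = melting point raised past a set limit in the mean and every replicate; three in four hits are not shown here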
Target sequence (Q9HCT0 whole entry, looked up): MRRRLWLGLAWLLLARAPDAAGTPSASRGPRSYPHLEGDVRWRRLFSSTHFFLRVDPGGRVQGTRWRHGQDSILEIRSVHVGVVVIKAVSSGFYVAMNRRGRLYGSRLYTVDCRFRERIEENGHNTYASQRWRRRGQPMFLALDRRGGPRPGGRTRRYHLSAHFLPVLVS
ALR H2O2 inh = inhibitors of human ALR sulfhydryl oxidase, primary screen, biochemical, H2O2 detection, HRP-luminol luminescence, single point | purified ALR, DTT oxidation | AID 485317, 2010 | 3.8% of 290,000 active | inhibition, % (concentration not given with the values) | FAD-linked sulfhydryl oxidase ALR (Homo sapiens), P55789;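 active = mean and each replicate at 75% or more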;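 note: stock transfer was 7.5 nL into about 7.5 µL; 0% = neutral wells and 100% = wells with inactivated enzyme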
rRNA inh HTS = reduced GFP signal of wild-type E. coli, primary screen, bacterial rRNA inhibitor project, GFP/RFP fluorescence, OD600, single point. GFP signal change (wild-type ribosome), % (concentration not given with the values). E. coli WT GFP vs humanized-ribosome RFP mutants, 24 h; stronger effect = lower value; DMSO median 0, no signal -100. AID 720706, 2013. 1.6% of 350,000 active;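 active = significant combined selectivity score with lowered wild-type GFP, culture density cut under 30%, mutant RFP and density less affected; inactive = any of these conditions unmet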; note: one replicate is shown; some compounds called inactive have numbers as strong as hits
E coli growth = E. coli growth inhibition, primary screen, OD600; Escherichia coli growth, 23 h; stronger effect = lower value; OD600 absorbance (test concentration not listed); 0.21% of 330,000 active; AID 1053175, 2014;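 active = OD600 absorbance below the run mean of sample wells minus 3.6 SD, in any replicate, cut at about 0.56 in these data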;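 note: stock transfer was 300 nL into about 60 µL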
Beta2AR agonist = beta2AR agonists driving receptor internalization, primary screen, cell-based, FAP fluorogen, flow cytometry. 0.43% of 340,000 active. Am2.2-beta2AR cells; reference of the scale not given here. response, % (no concentration beside the values). Beta-2 adrenergic receptor (Homo sapiens), P07550;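 active = response above a set limit, near 3 SD of response in nonfluorescent compounds, cut at about 42% in these data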;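 note: stock transfer was 100 nL into about 11 µL; a reference agonist was the positive control; negative values mostly stem from fluorescent compounds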
Target sequence (P07550 whole entry, looked up): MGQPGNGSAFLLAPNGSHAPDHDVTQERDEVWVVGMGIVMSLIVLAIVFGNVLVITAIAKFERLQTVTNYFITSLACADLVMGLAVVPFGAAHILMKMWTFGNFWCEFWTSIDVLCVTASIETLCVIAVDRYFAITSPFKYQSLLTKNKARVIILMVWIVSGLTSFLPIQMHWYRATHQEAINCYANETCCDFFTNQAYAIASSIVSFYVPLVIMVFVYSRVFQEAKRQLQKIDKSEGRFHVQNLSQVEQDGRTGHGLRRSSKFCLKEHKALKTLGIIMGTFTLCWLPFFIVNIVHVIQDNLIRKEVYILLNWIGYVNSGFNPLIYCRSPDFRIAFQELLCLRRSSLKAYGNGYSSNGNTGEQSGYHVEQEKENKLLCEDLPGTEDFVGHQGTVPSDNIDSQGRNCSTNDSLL
UCH37 inh = inhibitors of human UCH37 deubiquitinase, primary screen, biochemical, Ub-AMC cleavage, fluorescence | Ubiquitin carboxyl-terminal hydrolase isozyme L5 (Homo sapiens), Q9Y5K5 | purified proteasome/UCH37 | inhibition, % (test concentration not listed) | 0.33% of 330,000 active;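 active = mean of two replicates above 20%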;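 note: 0% = compound-free wells with enzyme and 100% = wells lacking proteasome; stock transfer was 100 nL into about 20 µL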
Target sequence (Q9Y5K5 whole entry, looked up): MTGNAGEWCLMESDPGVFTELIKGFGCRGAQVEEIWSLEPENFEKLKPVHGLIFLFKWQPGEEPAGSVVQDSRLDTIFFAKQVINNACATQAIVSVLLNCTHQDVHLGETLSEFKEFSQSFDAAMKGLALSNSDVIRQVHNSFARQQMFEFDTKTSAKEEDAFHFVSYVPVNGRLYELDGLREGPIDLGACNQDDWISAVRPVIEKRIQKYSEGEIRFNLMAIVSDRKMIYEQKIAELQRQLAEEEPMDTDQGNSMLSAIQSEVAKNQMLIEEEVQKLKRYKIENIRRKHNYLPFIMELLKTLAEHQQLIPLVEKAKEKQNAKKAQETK
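Test system – human UCH37 enzyme supplied as purified proteasome complex · Incubation – 30 min preincubation with enzyme, 25 min cleavage at room temperature · Detection – AMC fluorescence from Ub-AMC cleavage, excitation 355 nm, emission 460 nm · Benchmarks – no-proteasome wells (full inhibition) and compound-free wells (no inhibition)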
rRNA inh HTS OD600 = further read-out of rRNA inh HTS, marked with its call; OD600 change, %; measured here: OD600 growth;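 optical density of the mix in the first replicate; 0 = DMSO median and -100 = no signal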
rRNA inh HTS RFP = further read-out of rRNA inh HTS, marked with its call; RFP signal change, %; measured here: RFP humanized mutant strains;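 first replicate; 0 = DMSO median and -100 = no signal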
* hit, by the source's call; i = inactive; / = no result given; & = joins results of further samples. Some of the compounds tested; the hit share may differ from the screen's.

SMILES	HNF4A DNA FP	FGF22 binding	ALR H2O2 inh	rRNA inh HTS	rRNA inh HTS OD600	rRNA inh HTS RFP	E coli growth	Beta2AR agonist	UCH37 inh
CC(C(=O)Nc1nccs1)c1ccc([N+](=O)[O-])cc1 (stereo not drawn)	-0.2	i	-13	-5	2	-4.3	0.69	-3	2.9
Cc1ccc(NS(=O)(=O)c2ccc3c(c2)oc(=O)n3C)c(C)c1	2.5	i	12	-5	-3	4.3	/	-13	/
O=C(Nc1ccc(F)c(Cl)c1)C1CCCC1	-1.9	i	-19	-9	-4	-9.6	0.64	19	3.3
CC(C)NS(=O)(=O)c1ccc(OCC(=O)Nc2ccccc2F)cc1	0.1	i	-13	-8	-12	-0.3	0.71	-5	3.0
CCCOc1ccc(-c2nnn(CC(=O)Nc3cccc(C(=O)OC)c3)n2)cc1	1.6	/	-9	/	/	/	0.7	-9	0.9
COCCNC(=S)NNC(=O)c1cc(C2CC2)nc2ccccc12	2.7	i	31	15	20	0.5	0.64	-1	5.6
COc1ccc(NC(=S)Nc2ccccc2)cc1	0.5&1.9	i	1&1	13&9	2&8	8.5&-0.1	0.69&0.67	-3&-11	0.9&2.0
COc1ccc(N2C(=O)c3ccccc3NC2c2ccc(OC)c(CSc3ccccn3)c2)cc1 (stereo not drawn)	1.6	i	-1	17	12	0.4	0.74	1	-220
O=C(NCc1ccc(F)cc1)Nc1ccc(Cl)cc1	-1.5	i	/	6	3	-1.8	0.66	0	3.5
O=c1cc(C(F)(F)F)oc2c1ccc1ccccc12	1.6	/	/	/	/	/	0.69	3	-70
COc1ccc(C(=O)CSc2nnc(CN3CCCCC3)n2-c2ccc(Cl)cc2)cc1OC	-4.3	/	-17	/	/	/	0.73	4	-0.8
CCn1c(C)nc2cc(C(=O)N/N=C/c3ccc(N4CCOCC4)cc3)ccc21	1.6	i	91*	-12	-4	3.7	/	8	/
COc1cccc2oc(CCc3ccccc3)cc(=O)c12	1.5	i	/	-29	-32	-9.2	0.69	4	-18
CC1(C)Cc2cccc(C(=O)Nc3ccncc3)c2O1	0.3	i	-6	-14	-10	-1.3	0.65	-13	1.5
CSCCC(C(=O)NC1=NCCS1)N1C(=O)c2ccccc2C1=O (stereo not drawn)	-0.3	/	1	/	/	/	0.75	-1	1.9
CCn1cc(S(=O)(=O)NC(C)c2cc(OC)ccc2OC)cn1 (stereo not drawn)	3.3	i	-12	8	18	4.1	0.71	10	4.3
COc1cccc(NC(=S)NC(=O)c2cccnc2)c1	1.5	/	/	-1	-4	-3.1	0.72	-6	-0.2
CCN(CC)c1ccc(/C=C(\C#N)C(=O)NCc2ccccc2)cc1	41*	/	9	/	/	/	/	0	/
CC(C)[C@H](NC(=O)OCc1ccccc1)C(=O)NC(C=O)Cc1ccccc1 (stereo partly drawn)	2.6	/	-24	/	/	/	/	3	2.3
Cc1c(NC(=O)c2cc(-c3ccc(Cl)s3)nc3ccccc23)c(=O)n(-c2ccccc2)n1C	-1.3	/	/	/	/	/	0.72	5	-5.1

Pulled by compound from the entries so far, 4 records:
SMILES	HNF4A DNA FP	FGF22 binding	ALR H2O2 inh	rRNA inh HTS	rRNA inh HTS OD600	rRNA inh HTS RFP	E coli growth	Beta2AR agonist	UCH37 inh
CC1(C)Cc2cccc(C(=O)Nc3ccncc3)c2O1	0.3	i	-6	-14	-10	-1.3	0.65	-13	1.5
CSCCC(C(=O)NC1=NCCS1)N1C(=O)c2ccccc2C1=O (stereo not drawn)	-0.3	/	1	/	/	/	0.75	-1	1.9
CCN(CC)c1ccc(/C=C(\C#N)C(=O)NCc2ccccc2)cc1	41*	/	9	/	/	/	/	0	/
COCCNC(=S)NNC(=O)c1cc(C2CC2)nc2ccccc12	2.7	i	31	15	20	0.5	0.64	-1	5.6

Next section.
SMILES	HNF4A DNA FP	FGF22 binding	ALR H2O2 inh	rRNA inh HTS	rRNA inh HTS OD600	rRNA inh HTS RFP	E coli growth	Beta2AR agonist	UCH37 inh
COc1ccc(NS(=O)(=O)c2cc(NC(=O)c3nc4nc(C)cc(C)n4n3)ccc2C)cc1	-6.1	i	-6	/	/	/	0.71	-2	4.0
O=C(O)CCC(=O)Nc1ccc(N2CCCCCC2)cc1	-2.2	/	99*	/	/	/	0.73	5	1.8
NS(=O)(=O)c1ccc(NC(=O)COC(=O)c2ccc(S(=O)(=O)N3CCOCC3)cc2)cc1	-0.9	/	/	12	14	1.1	0.71	6	1.1
Cc1cc(NC(=O)CCN2C(=O)/C(=C/c3ccccc3F)SC2=S)no1	/	i	-2	6	-3	-2.9	0.73	/	2.6
CC(=O)Nc1ccc(S(=O)(=O)NNC(=O)C2CCCCC2)cc1	7.2	i	37	13	23	0.3	0.69	7	0.8
CCOC(=O)N1CCN(c2ccc(C(=O)c3cccc(F)c3)cc2)CC1	0.5	/	1	/	/	/	0.67	0	-2.2
COc1cccc(/C=N/n2c(COc3ccccc3)n[nH]c2=S)c1	1.4	i	-3	-5	10	-0.7	/	-1	/
Nc1nc(N2CCCCC2)nc(N(c2ccccc2)c2ccccc2)n1	-0.4	i	-1	7	12	-0.9	0.74	-6	5.6
CC(C)(C)NCc1cc(Br)ccc1OC1CCCC1	3.7	i	-4	4	-7	-1.8	0.64	13	0.3
Cc1ccc(Cn2c(=O)c3c(nc4n3CCN4Cc3ccco3)n(C)c2=O)cc1	1.0	/	/	/	/	/	0.64	4	2.1
Clc1ccc(SCCOCCN2CCCCC2)cc1	-0.4	/	/	/	/	/	0.67	-4	-0.7
CC(Sc1cccc2cccc(C(=O)O)c12)C(=O)O (stereo not drawn)	0.5	/	-13	/	/	/	0.56	5	0.8
CCCS(=O)(=O)NC(=O)C1(C)CCCN(C(=O)c2cc(F)ccc2C)C1 (stereo not drawn)	-1.1	i	/	5	10	1.6	/	/	/
Cc1ccc(NC(=O)CSc2nc(N)cc(=O)[nH]2)cc1S(=O)(=O)N1CCCCCC1	-3.3	i	99*	5	6	5.8	0.64	1	2.7
CCOc1ncccc1C(=O)OCC(=O)N(CC(C)C)c1c(N)n(Cc2ccccc2)c(=O)[nH]c1=O	-1.1	i	/	9	15	1.1	0.64	-3	2.9
C/C(=N\NC(=O)c1cccc(N/N=C(\C)c2ccccc2)c1)c1ccccc1	-2.1	/	87*	/	/	/	/	-7	/
NC(=O)c1ccc[n+](CC(=O)c2ccc(NC(=O)c3ccccc3)cc2)c1	3.5	i	14	19	13	1.0	0.65	-3	4.9
CN1CCN(c2cc(-c3ccc4ccccc4c3)nc3ccnn23)CC1	-1.9	i	/	9	21	0.1	/	/	/
C=C1SC(Nc2c(C)cccc2C)=NC12CCCCC2	-0.8	i	11	-22*	-14*	3.8*	0.69	11	3.4
O=C(Cc1ccc(Br)cc1)Nc1ccccc1N1CCCC1	3.0	i	47	-61	-75	-16	0.72	-2	3.7
Cc1ccc(CNCc2cccnc2)s1	3.3	i	/	30	27	-0.4	0.72	1	0.2
CC1(c2nnc(Cc3ccccc3)o2)CC(c2cccc(F)c2)=NO1 (stereo not drawn)	-1.3	i	-4	2	4	-7.5	0.68	-9	0.2
O=C(/C=C/c1cc([N+](=O)[O-])ccc1OC(F)F)Nc1cccc([N+](=O)[O-])c1	2.4	i	/	6	-3	-2.9	0.73	12	3.3
Cc1ccc(NC(=O)c2cc(C)nc3ccccc23)cc1	-2.9	i	-17	16	17	-1.1	0.68	-3	2.3
COC(=O)c1sccc1NC(=O)Nc1cc(OC)ccc1OC	2.5	i	20	0	4	1.7	0.7	2	4.8
CCCNC(=O)c1ccc(N2CCC3(CC2)CC(c2cccc(Br)c2)=NO3)c(NC(=O)c2ccccc2)c1	-0.1	i	-5	7	8	3.5	0.76	-2	3.9
Cc1cc(Cl)ccc1OCC(=O)OC(C)C(=O)NC(N)=O (stereo not drawn)	-0.2	/	2	/	/	/	0.72	7	3.9
CCOC(=O)CC(=O)CSc1nc2ccccc2c(=O)n1-c1ccc(C(=O)N2CCOCC2)cc1	-3.4	/	11	/	/	/	0.67	-6	3.6
O=C(Nc1ccnn1C1CCN(Cc2cccc(OCCO)c2)CC1)c1cccc(F)c1	2.6	i	-2	8	4	-1.2	0.66	-1	0.2
O=C1CCC/C1=C/Nc1ccc2c(c1)OCO2	2.1	/	52	/	/	/	0.7	4	13
Cc1nc(NC(=O)CSc2nnnn2C)sc1C	1.0	/	-2	/	/	/	0.66	3	2.7
CC(C)C(=O)N(c1ccc2oc(=O)sc2c1)S(=O)(=O)c1cccs1	0.7	/	18	/	/	/	0.73	2	6.0
N=c1c2c(n(Cc3ccc(F)cc3)c3c1CCC3)CCCC2	-3.2	i	-3	-31*	-16*	12*	0.66	-1	0.5
CCOc1ccc(NC(=O)c2ccc(NC(=O)COC(=O)c3ccc(NC(=O)CC#N)cc3)cc2)cc1	-21	i	2	3	4	-2.4	/	1	/
O=C(c1cccs1)N1CCN(c2nc3ccccc3s2)CC1	11	i	-2	15	17	-0.3	0.67	-1	2.0
Cc1[nH][nH]c(=O)c1C	1.0	i	54	-6	10	1.8	0.67	0	4.1
N#CCCN(C(=O)CN1C(=O)NC2(CCCC2)C1=O)c1ccccc1F	7.5	/	-4	/	/	/	0.71	1	1.1
CCOC(=O)CC(NC(=O)CCc1c(C)nc2nc(C)nn2c1C)c1ccc(C)cc1 (stereo not drawn)	-3.0	i	-2	6	11	-1.0	0.71	-6	2.6
CC(=O)NC(c1ccc(C(C)C)cc1)c1ccc2cccnc2c1O (stereo not drawn)	0.7	i	-9	-51	-79	-19	/	4	/
O=C(CC1(O)C(=O)Nc2ccc(Br)cc21)c1ccc2c(c1)OCO2 (stereo not drawn)	1.4	/	15	/	/	/	0.65	-4	1.8
CCOc1cccc(C(=O)Nc2cccnc2)c1	-0.6	/	-5	/	/	/	0.66	-7	4.1
COc1cc(-c2nc(-c3ccccc3)c(-c3cccs3)[nH]2)cc(OC)c1OC	4.2	/	34	/	/	/	0.7	25	-20
COc1ccccc1CNC(=O)CCS(=O)(=O)Cc1ccc(C)cc1	-1.6	i	1	7	5	-1.1	0.67	-3	5.2
CC(C)CCNC(=O)C(=O)Nc1ccc2c(c1)N(S(=O)(=O)c1cccs1)CCC2	2.0	i	-5	-1	-6	1.1	0.66	-9	3.5
COC(=O)CCN(c1ccccc1)S(=O)(=O)c1cc(-c2cc(C)no2)ccc1C	0.6	i	-2	-4	-19	2.6	0.69	-6	3.4
COC(=O)C1=C(N)Oc2cc(C)n(Cc3ccco3)c(=O)c2C1c1cccc(Cl)c1 (stereo not drawn)	0.6	/	0	/	/	/	0.72	5	3.0
C=CCSc1ncc(C#N)c(N)n1	0.8	/	-1	/	/	/	0.71	-4	-1.4
Cc1cccc(NC(=O)CN(C)S(=O)(=O)c2cnc[nH]2)c1C	-2.3	i	/	11	18	-0.2	/	/	/
COc1ccc(C2/C(=C(\O)c3ccc4c(c3)OCCO4)C(=O)C(=O)N2Cc2ccco2)c(OC)c1 (stereo not drawn)	-6.7	/	/	/	/	/	0.67	8	9.4
Cc1ccc(-c2cc(C(F)F)n3ncc(C(=O)N4CCN(c5ccccn5)CC4)c3n2)cc1	2.9	i	-2	-11	-22	-2.2	0.78	-18	2.8
O=c1c2ccccc2[nH]c(=S)n1CCc1ccccc1	1.6	i	-5	/	/	/	0.68	-18	5.0
